Hedgehog cleavage = Drosophila hedgehog isoform A inhibitors, primary screen, biochemical, plate reader, single concentration (AID 588832) | Biochemical plate reader assay, Hedgehog inhibition; active compounds read high | inhibition, % at 30.3 µM | 8,000 tested, under 10 active; in the data active = inhibition from about 57%;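 note: 0% = neutral control wells and 100% = positive control wells; cholesterol-driven self-cleavage of fly hedgehog protein by fluorescence polarization; read one hour after cholesterol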
Active calls of the source: *.

Molecule,Hedgehog cleavage
Cc1cc2c(cc1S(=O)(=O)Nc1c(C)cccc1C)n(C)c(=O)c(=O)n2C,17
COCCN1C(=O)c2oc3ccccc3c(=O)c2C1c1cccc(O)c1 (stereo unspecified),12
CN1CCN(CCCNC(=O)c2ccc3c(c2)N(Cc2ccccc2)CCS3)CC1,25
COc1ccc(-n2c(Cc3cccn3C)nnc2SCC(=O)Nc2ccc(C(C)=O)cc2)cc1,17
CCC(C)NC(=O)C1=C(C)C(=O)OC12CCC(C)CC2 (stereo unspecified),7
COc1ccc(C(=O)N2CCN(c3ccc(C)c(C)c3)CC2)cc1OC,13
Cc1cc(C)cc(NC(=O)CSc2nc3ccccc3nc2N2CCCCC2)c1,5
CN(C1CCCCC1)S(=O)(=O)c1ccc(S(=O)(=O)N2CCN(CCC#N)CC2)cc1,25
COc1ccc(CCNC(=O)CCC(=O)n2ncc3ccc(Cl)cc32)cc1OC,3
CC(=O)Cc1cc(=O)c2c(C)cc(O)c(C3OC(CO)C(O)C(O)C3O)c2o1 (stereo unspecified),4
CC(C)N1CCc2c(sc(NC(=O)Cc3ccccc3)c2C(N)=O)C1,6
Cc1cc(O)c2c(c1O)C(=O)[C@]13C(=C2O)C(=O)[C@@H]2[C@@H](O)[C@H]1[C@@H]1[C@H](O)[C@H]3C(=O)C3=C(O)c4c(O)cc(C)c(O)c4C(=O)[C@]312,14
CCc1cc(=O)oc2c(C)c(OCC(=O)N3CCC[C@@H]3C(=O)O)ccc12,3
Cc1cc(C)c2c(n1)SCC(=O)N2CC(=O)Nc1cccc(Cl)c1,5
Cc1cc(=O)oc2c3c(cc(OCC(=O)N[C@@H](Cc4ccccc4)C(=O)O)c12)OC(C)(C)CC3,3
O=C(CN1CCOc2ccccc21)NCc1ccc(Cl)cc1,9
CCN1CCN(C(=O)Cn2c(=O)sc3ccccc32)CC1,15
CC(=O)c1cccc(NC(=O)COc2ccc3oc(=O)cc(C)c3c2)c1,7
OCCc1c[nH]c2ccccc12,4
CC(=O)NC(C)c1nc2ccccc2n1C(C)C (stereo unspecified),-3
COc1ccc(-c2nc(CSCC(=O)N3CCN(c4cccc(C)c4)C(C)C3)c(C)o2)cc1OC (stereo unspecified),5
CC1OC2CC(=O)OC2C2=C1C(=O)c1c(O)cccc1C2=O (stereo unspecified),26
COc1ccc(CCNC(=O)CCC(=O)N2CCOc3ccc(C)cc32)cc1OC,10
CCN(C(=O)N(CC)c1ccccc1)c1ccccc1,5
NC(CO)C(O)c1ccc([N+](=O)[O-])cc1 (stereo unspecified),5
COCOc1ccc(C2CC(=O)c3c(OCOC)cc(OCOC)cc3O2)cc1 (stereo unspecified),3
COc1ccc(-c2cc(C(=O)N3CCN(S(=O)(=O)c4ccc(C)cc4)CC3)[nH]n2)cc1,2
Cc1oc(-c2cccs2)nc1CS(=O)CC(=O)NC1CCCCCC1 (stereo unspecified),4
CC(=O)O[C@@H]1C[C@@]2(C)[C@@H](CC[C@H]2[C@@H](C)/C=C\CC(C)C)C2=C[C@@H](O)[C@@]3(O)C[C@@H](O)[C@H](O)C[C@]3(CO)[C@]21O,5
CN(CCNC(=O)c1cc2c(=O)n(C)c3ccccc3c2n1C)Cc1ccccc1,15
O=C(CCCC(=O)N1CCN(c2ccccc2F)CC1)c1ccccc1,10
Cc1cc(=O)oc2c3c(cc(OCC(=O)NCc4ccncc4)c12)OC(C)(C)CC3,5
COc1ccc2[nH]c3c(c2c1)CCN1C(=O)N([C@@H](C)C(=O)NCc2ccccc2)C(=O)[C@]31C,5
CCC1CCCCN1C(=O)CSc1nnc(-c2ccc(OC)cc2)o1 (stereo unspecified),17
Cc1c(OCC(=O)N2CCC(C(=O)O)CC2)ccc2c3c(c(=O)oc12)CCCC3,2
C[C@@H]1C[C@@H]2O[C@H]2/C=C\C=C\C(=O)Cc2c(Cl)c(O)cc(O)c2C(=O)O1,5
O=C(NCCn1cc(SCc2ccc(F)cc2)c2ccccc21)c1c(F)cccc1F,11
O=C1OC(N2C(=O)CC[C@H]2C(=O)Nc2cccc(F)c2)c2ccccc21 (stereo partly specified),5
COc1ccc(C(=O)N2CCN(S(=O)(=O)c3ccc(C)cc3C)CC2)cc1OC,3
CC(C)[C@H](NC(=O)[C@@H]1Cc2c([nH]c3ccccc23)C2c3ccccc3C(=O)N21)C(=O)NCC1CCCO1 (stereo partly specified),2
CN1CCN(C(CNS(=O)(=O)c2cccs2)c2cccnc2)CC1 (stereo unspecified),11
COc1cc(C(=O)NCCc2cn3ccc(C)cc3n2)cc(OC)c1OC,2
COc1cccc(-n2c(SCC(=O)N3CCc4ccccc43)nnc2-c2c[nH]c3ccccc23)c1,4
Cc1n[nH]c(C)c1S(=O)(=O)N1CCCC(C(=O)NC2CCCc3ccccc32)C1 (stereo unspecified),0
CC(C)OCCCNC(=O)CN1C(=O)COc2ccc(S(=O)(=O)N3CCCCCC3)cc21,17
CCOc1ccc(C(=O)Nc2ccc(S(=O)(=O)N3C[C@@H]4C[C@@H](C3)c3cccc(=O)n3C4)cc2)cc1,0
CC(C)Sc1nc2c(c(=O)n1C)SC(C)C2 (stereo unspecified),3
CCN1C(=O)c2ccccc2S(=O)c2ccc(C(=O)N3CCCC3)cc21 (stereo unspecified),3
Cc1ccc(-c2nnc3n2N=C(c2ccc(Br)cc2)CS3)cc1,10
CCc1cc(=O)oc2cc(C)cc(OCC(=O)NCC3CCC(C(=O)O)CC3)c12 (stereo unspecified),3

Look-ups from above:
`Cc1oc(-c2cccs2)nc1CS(=O)CC(=O)NC1CCCCCC1` (stereo unspecified) in Hedgehog cleavage → 4
`CCN1C(=O)c2ccccc2S(=O)c2ccc(C(=O)N3CCCC3)cc21` (stereo unspecified) in Hedgehog cleavage → 3
`COc1ccc(C(=O)N2CCN(c3ccc(C)c(C)c3)CC2)cc1OC` in Hedgehog cleavage → 13
`Cc1cc(C)cc(NC(=O)CSc2nc3ccccc3nc2N2CCCCC2)c1` in Hedgehog cleavage → 5
`CC(C)[C@H](NC(=O)[C@@H]1Cc2c([nH]c3ccccc23)C2c3ccccc3C(=O)N21)C(=O)NCC1CCCO1` (stereo partly specified) in Hedgehog cleavage → 2
`CC(=O)c1cccc(NC(=O)COc2ccc3oc(=O)cc(C)c3c2)c1` in Hedgehog cleavage → 7
`Cc1ccc(-c2nnc3n2N=C(c2ccc(Br)cc2)CS3)cc1` in Hedgehog cleavage → 10

(further entries)
Molecule,Hedgehog cleavage
O=c1sc(N2CCN(c3ccccc3F)CC2)nc2ccsc12,4
CCOC(=O)N1CCC(NC(=O)Cn2nc(Cc3ccncc3)c3ccccc3c2=O)CC1,8
CCc1c(C)sc(NC(=O)c2cc(C3CC3)on2)c1C#N,10
CCCC(=O)N=c1sc2cccc(F)c2n1C,0
CCN(CC)c1ccc(NC(=O)c2nc3nc(C)cc(C(F)F)n3n2)cc1,7
Cc1ccc2ncccc2c1,-2
COc1cc(OC)c2c(=O)c(OC)c(-c3ccc(OC)c(OC)c3)oc2c1,3
CCOc1ccc(OCC)c(NC(=O)C2CCCN(S(=O)(=O)c3c(C)n[nH]c3C)C2)c1 (stereo unspecified),-2
O=C(NCCc1c[nH]c2ccccc12)C(=O)Nc1ccccc1,-5
Cc1nc2sccn2c(=O)c1S(=O)(=O)N1CCN(c2cccc(Cl)c2)CC1,2
CCCCN(C)C(=O)CS(=O)(=O)Cc1nc(-c2cccc(OC)c2)oc1C,5
CC1CCCCN1C(=O)CSCC(=O)Nc1nc(-c2cccs2)cs1 (stereo unspecified),5
Cc1ccccc1C1CC(c2ccc(Br)cc2)Nc2nc(N)nn21 (stereo unspecified),0
CC1CCCN(Cc2nc3c(c(=O)n(C)c(=O)n3C)n2Cc2c(F)cccc2Cl)C1 (stereo unspecified),19
COc1ccc(-c2cn3c(C)c(C(=O)NCc4ccc5c(c4)OCO5)sc3n2)cc1,4
Cc1ccc(CNS(=O)(=O)c2cc3c(cc2C)NC(=O)CO3)cc1,19
O=C(Cn1cc2c(n1)CCCC2)NCc1cccc(Cl)c1,-1
CCOC(=O)C(C)Oc1cccc2c(=O)n(CC(=O)NCCc3ccc(OC)c(OC)c3)ccc12 (stereo unspecified),7
COc1ccc(C2=NS(=O)(=O)N(C)C(C(=O)NC(C)c3ccccc3)=C2)cc1OC (stereo unspecified),21
CC(C)[C@@H](C(=O)NCC1CCCO1)N1C(=O)N2CCc3c([nH]c4ccccc34)[C@@]2(C)C1=O (stereo partly specified),11

Given field by field: part of the list above.
CCCCN(C)C(=O)CS(=O)(=O)Cc1nc(-c2cccc(OC)c2)oc1C
  Hedgehog cleavage: 5

CC1CCCCN1C(=O)CSCC(=O)Nc1nc(-c2cccs2)cs1 (stereo unspecified)
  Hedgehog cleavage: 5

(more compounds)
Molecule,Hedgehog cleavage
Cc1ccn2cc(CNC(=O)c3ccc(Br)o3)nc2c1,7
O=C(Nc1ccc(-c2nc3cccnc3s2)cc1)c1ccco1,17
Cc1ccc(C)c(N2CCN(C(=O)c3cc(S(=O)(=O)N4CCCC4)cn3C)CC2)c1,4
COc1cccc(C(=O)NCc2nnc(SCC(=O)Nc3nccs3)n2-c2ccccc2)c1,10
O=C(Cn1cnc2c(nnn2Cc2ccc(Cl)cc2)c1=O)c1ccccc1,0
CC1CN(C(=O)CCC(=O)NCc2ccc(Cl)cc2)c2ccccc2S1 (stereo unspecified),-10
CCN1CCN(CCCNC(=O)CCC(=O)N2CCOc3ccccc32)CC1,7
CC(=O)NC(CCS(C)(=O)=O)C(=O)Nc1ccc(Oc2ccccc2)cc1 (stereo unspecified),10
CCc1ccccc1N1CC23C=CC(O2)C(C(=O)O)C3C1=O (stereo unspecified),15
O=C(Nc1ccc2nc3n(c(=O)c2c1)CCCCC3)C(=O)N1CCN(c2ccccc2)CC1,3
Cc1oc2cc3oc(=O)c(CCC(=O)N4CCC(C(=O)O)(c5ccccc5)CC4)c(C)c3cc2c1C,5
CCCc1cc(=O)oc2cc(C)cc(OCC(=O)NC(Cc3c[nH]c4ccc(O)cc34)C(=O)O)c12 (stereo unspecified),3
CCOC(=O)Cn1c(CN2CC(C)OC(C)C2)nc2c1c(=O)n(C)c(=O)n2C (stereo unspecified),7
CC1CCN(S(=O)(=O)N2CCC(C(=O)N3CCC(N(C)CC4CCCO4)CC3)CC2)CC1 (stereo unspecified),5
Cn1c(=O)cc(N2CCN(C(=O)c3ccco3)CC2)[nH]c1=O,4
CCc1nn(CC(=O)N2CCN(CC)CC2)c(=O)c2cccn12,2
CCCNC(=O)C1CC(=O)N(c2ccc(OCC(=O)Nc3cccc(C)c3C)cc2)C1 (stereo unspecified),8
Cc1ccc(C)c(N2CCN(S(=O)(=O)c3ccc4c(c3)C(C)(C)C(=O)N4C)CC2)c1,15
O=C(CSc1nc2c(c(=O)n1-c1ccccc1)SCC2)N1CCN(c2ccccc2)CC1,5
CCOc1ccc(-c2nnc(SCC(=O)N3CCN(c4ccccc4)CC3)o2)cc1,20
COc1ccc(S(=O)(=O)NCc2ccc3c(c2)cc(C)n3C)cc1,62*
Cc1ccc2c(c1)-c1c(cnn1CC(=O)Nc1ccccc1N1CCN(C)CC1)CO2,4
COc1ccc2[nH]c(C)c(CCN3C(=O)C4C5C=CC(C5)C4C3=O)c2c1 (stereo unspecified),17
CCOC(=O)c1c(NC(=O)C2CCCCC2)sc2c1CCN(CC)C2,-3
COc1ccc2nc(NNC(=O)C3COc4ccccc4O3)sc2c1 (stereo unspecified),4
COc1ccc2ccccc2c1C1CC(=O)N2CN(C3CCCCC3)CSC2=C1C#N (stereo unspecified),10
CC(C)c1onc(C(=O)N2CCN(C(c3ccccc3)c3ccccc3)CC2)c1[N+](=O)[O-],21
Cc1c(O)cc2c(c1O)C(=O)CC(c1ccccc1)O2 (stereo unspecified),5
COc1ccc(-c2cc3c(=O)n(CC(=O)N4CCN(C)CC4)ncn3n2)cc1,9
Cc1ccc(C2=NS(=O)(=O)N(C)C(C(=O)NC3CCCCC3)=C2)cc1,7
Cc1ccc2nc(NC(=O)C3CCCN(S(=O)(=O)c4cccnc4)C3)sc2c1 (stereo unspecified),9
O=C(NCCc1ccc(Cl)cc1)c1ccc(NC2=NC3CS(=O)(=O)CC3S2)cc1 (stereo unspecified),3
CCCc1cc(C(=O)Nc2ccccc2SC)no1,2
O=C(Cn1ncc2c3ccccc3n(Cc3ccccc3)c2c1=O)N1CCN(c2ccccn2)CC1,8
COC(=O)c1cc(S(=O)(=O)N2CCN(c3cccc(Cl)c3)CC2)c[nH]1,4
COc1ccc(S(=O)(=O)Nc2ccc3oc(C)c(C(=O)O)c3c2)cc1,4
O=C(O)C1CC=CCC1C(=O)NCc1cn2ccccc2n1 (stereo unspecified),2
Cc1nc2sccn2c(=O)c1S(=O)(=O)Nc1ccc(N2CCN(C)CC2)cc1,9
COc1ccccc1NC(=O)CSc1nnc(Cc2cccn2C)n1-c1ccc(F)cc1,20
CCc1ccc(C2CC(c3ccc(C)cc3)n3nc(N)nc3N2)cc1 (stereo unspecified),-2
COc1cccc(C(N)=O)c1,7
CCCCN(C)C(=O)C1CCCN(S(=O)(=O)c2ccc3c(c2)oc(=O)n3C)C1 (stereo unspecified),7
N#CC1=C2N=C(N)c3ccccc3N2C2=C(C(=O)CCC2)C1c1cccc(Cl)c1 (stereo unspecified),-7
CCc1ccc(NC(=O)C2CCN(S(=O)(=O)c3ccc4[nH]c(=O)ccc4c3)CC2)cc1,4
Cc1onc(-c2ccccc2Cl)c1C(=O)Nc1nnc(-c2ccc(F)cc2)s1,0
Cc1ccc(NS(=O)(=O)c2c(C)nc3sccn3c2=O)c(C)c1,-2
C=CCn1c(SCCOC)nc2c1c(=O)[nH]c(=O)n2C,14
O=C(CNC(=O)N1CC(=O)Nc2ccccc21)NCCc1c[nH]c2ccccc12,7
O=C(COc1ccccc1)NCCc1cn2ccsc2n1,9

Screening results: PubChem BioAssay, Broad Institute

This is a subset (hit frequency here may not be typical).
